Screening results (PubChem BioAssay)
Mtb hypoxia inh = PubChem AID 1159583. fluorescence inhibition, % (test concentration not listed). 300,000 tested, 0.1% active. M. tuberculosis hypoxia-regulated fluorescent reporter, fluorescence;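 active = 35 to 45% if threefold the growth effect, above 45% if 1.5-fold the growth effect; inactive = the rest, general growth blockers included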;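 also: wells of about 50 µL received 100 nL stock; 0% = vehicle wells and 100% = reference inhibitor wells; whole bacteria with a GFP reporter of the hypoxia response; strong numbers were not always called active; many hits fall short of the cut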
Sa RN4220 lethal = growth inhibition of S. aureus RN4220, primary screen, OD600; 16 h; inhibition, % (no concentration beside the values); 330,000 tested, 0.33% active; AID 1259311, 2017;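 active = z-score of -3 or lower and OD600 up to 0.18 on both plates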;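 also: plate controls were untreated cells for no effect and reference antibiotic for full effect; stock transfer was 100 nL into about 80 µL; one replicate is shown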
BJeLR lethal = MLPCN primary cell-based screen for lethality selective to Ras in HRASV12 cells; BJeLR (HRASV12) viability, CellTiter-Glo ATP luminescence, 48 h; reference of the scale not given here; inhibition, % (concentration not given with the values); 300,000 tested, 0.17% active; AID 1554, 2009;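 active = replicate mean above 50%; inconclusive = above 50% but judged a plate artefact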;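 also: 50 nL library stock added to about 25 µL; numbers are from one replicate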
Autofluor counter = compound fluorescence in toxin protease inhibitor counterscreen | compound autofluorescence counterscreen, microsphere flow cytometry; active compounds read high | 360,000 tested, 3.1% active | AID 624483 | fluorescence intensity (test concentration not listed);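 active = at least 3 SD above the mean of all compounds, about 16000 in these data; inconclusive = too few beads counted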;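 also: 100 nL of 1 mM stock went into each well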
ugtP null kill = growth inhibition of ugtP-null S. aureus, primary screen, RN4220 ugtP deletion, OD600; 16 h; some inactives read as strong as hits; growth inhibition, % (concentration not given with the values); 330,000 tested, 0.54% active;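 active = z-score under -3 and OD600 up to 0.15 on both plates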;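 also: plate controls were untreated wells for no effect and antibiotic for full effect; wells of about 80 µL received 100 nL stock; the first replicate is given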
PrP 5UTR inh = inhibition of PrP 5' UTR reporter expression | cell-based PrP 5' UTR mRNA reporter, plate reader | inhibition, % (no concentration beside the values) | 340,000 tested, 0.35% active | AID 488862, 2010;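 active = every replicate at 50% or more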;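 also: 0 = median of the neutral control wells; tested in H4 reporter cells; numbers are from one replicate; inactives centre near -14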
Mtb hypoxia inh growth = second read-out of Mtb hypoxia inh, no call of its own (marks repeat the call); growth inhibition, %; measured here: M. tuberculosis growth (absorbance);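 0% = vehicle and 100% = reference antibiotic; read after six days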
An asterisk follows results filed as active; ? = inconclusive; nt = no result given; & = joins results of further samples.

SMILES	Mtb hypoxia inh	Mtb hypoxia inh growth	Sa RN4220 lethal	BJeLR lethal	Autofluor counter	ugtP null kill	PrP 5UTR inh
CC1CN(S(=O)(=O)c2ccc(C(=O)Nc3nc(-c4cc5ccccc5o4)cs3)cc2)CC(C)O1 (stereo not drawn)	-1.6	-1.4	10.3	10.4	2520	-29.5	-11.1
COc1cccc(/C=C/C(=O)Nc2cc(S(=O)(=O)N3CCOCC3)ccc2OC)c1	-8.6	3.4	-1.1	nt	?	3.5	1.1
CCOC(=O)c1c(C)n(C)c2ccc(OC(=O)c3ccco3)cc12	nt	nt	1.1	-11.5	4549	-8.4	-2.3
C/C(=C\CNc1ncnc2nc[nH]c12)CO	nt	nt	6.9	-2.9	5502	-11.7	-10.4
O=C(CCCC(=O)N(CC(=O)NC1CCCC1)C1CCCC1)Nc1ccccn1	5.7	4.1	6.3	-6.8	3204	0.2	-7.9
OCCNc1nc(Nc2ccc(O)cc2)nc2ccccc12	-4.8	-0.7	-0.1	18.7	4821	13.4	-24.0
CC(C)N1CC(C(=O)Nc2ccc(F)c(Cl)c2)CC1=O (stereo not drawn)	1.4	-3.0	1.2	1.2	5039	0.7	-6.5
CCOc1ccccc1N1CCN(C(=O)NCc2ccc(F)cc2)CC1	0.5	11.6	-1.0	2.2	3733	-0.7	-11.0
OCCC1CN(Cc2cccc(C(F)(F)F)c2)CCN1Cc1ccccc1 (stereo not drawn)	8.5	1.1	2.7	-0.7	4123	1.5	-36.1
CC(=O)NC(CSC(CC(=O)c1ccco1)c1ccc(C)cc1)C(=O)O (stereo not drawn)	14.8	14.7	9.7	-4.3	4338	1.4	-71.5
CC(C)(C)n1nnnc1C(c1cc2cc3c(cc2[nH]c1=O)OCO3)N1CCN(c2ccccc2)CC1 (stereo not drawn)	16.0	8.8	4.0	2.6	6098	8.3	-23.0
CCc1ccc(NC(=O)C(C)Sc2nnc(CN3CCCC3)o2)cc1 (stereo not drawn)	3.0	-0.8	-0.4	nt	7835	7.0	-9.7
Cc1cc(/C=C(/C#N)c2nc3ccccc3[nH]2)c(C)n1-c1ccccc1C(=O)O	-8.5	2.0	-1.6	5.3	4419	-7.9	-14.0
Cc1cc(=S)[nH]c(=S)[nH]1	13.5	2.9	4.1	-12.7	5000	1.3	-5.3
CC(C)C(=O)Nc1nnc(SCC(=O)N2C(C)CCCC2C)s1 (stereo not drawn)	-0.9	9.1	4.1	2.3	3154	8.4	-20.0
CC(C)(C)NC(=O)c1cccc2c1-c1ccccc1C2=O	15.6	2.6	8.6	6.1	3625	13.5	-22.9
COC(=O)COc1ccc2c(c1)O/C(=C\c1ccco1)C2=O	8.3	9.4	0.6	4.7	3692	15.6	-16.4
COC(=O)c1c(C)[nH]c(C(=O)/C=C/c2ccc(C)cc2)c1C	1.2	-2.6	3.1	-12.0	3152	8.1	-29.4
CN1N=C(C(=O)NC2CCCc3c2cnn3-c2ccc(F)cc2F)CCC1=O (stereo not drawn)	7.2	4.9	-1.8	11.4	5084	-1.7	-14.5
CC(=O)c1c(C)[nH]c(-c2ccccc2)nc1=S	6.3	9.0	-1.3	1.2	4124	3.9	1.2

Retrieved one by one from the list above, three records:
SMILES	Mtb hypoxia inh	Mtb hypoxia inh growth	Sa RN4220 lethal	BJeLR lethal	Autofluor counter	ugtP null kill	PrP 5UTR inh
CC(=O)c1c(C)[nH]c(-c2ccccc2)nc1=S	6.3	9.0	-1.3	1.2	4124	3.9	1.2
CC(=O)NC(CSC(CC(=O)c1ccco1)c1ccc(C)cc1)C(=O)O (stereo not drawn)	14.8	14.7	9.7	-4.3	4338	1.4	-71.5
COc1cccc(/C=C/C(=O)Nc2cc(S(=O)(=O)N3CCOCC3)ccc2OC)c1	-8.6	3.4	-1.1	nt	?	3.5	1.1

Entries of single compounds, looked up by structure:
CC(C)(C)NC(=O)c1cccc2c1-c1ccccc1C2=O across the screens: Mtb hypoxia inh = 15.6; Mtb hypoxia inh growth = 2.6; Sa RN4220 lethal = 8.6; BJeLR lethal = 6.1; Autofluor counter = 3625; ugtP null kill = 13.5; PrP 5UTR inh = -22.9
O=C(CCCC(=O)N(CC(=O)NC1CCCC1)C1CCCC1)Nc1ccccn1 across the screens: Mtb hypoxia inh = 5.7; Mtb hypoxia inh growth = 4.1; Sa RN4220 lethal = 6.3; BJeLR lethal = -6.8; Autofluor counter = 3204; ugtP null kill = 0.2; PrP 5UTR inh = -7.9

The list continues.
SMILES	Mtb hypoxia inh	Mtb hypoxia inh growth	Sa RN4220 lethal	BJeLR lethal	Autofluor counter	ugtP null kill	PrP 5UTR inh
O=C1/C(=C/c2cccc(F)c2)CSc2sccc21	nt	nt	-8.2	5.4	2737	4.7	-12.0
Cc1cc(=O)oc2c3c(cc(OCC(=O)NCCCn4ccnc4)c12)OC(C)(C)CC3	nt	nt	4.5	6.8	5591	0.0	-36.8
CC(C)n1c(N2CCN(CC(=O)Nc3ccc4c(c3)OCCO4)CC2)nc2ccccc21	9.8	8.6	2.7	-4.0	9715	6.2	3.1
CCCN(CC(=O)Nc1ccccc1C)C(=O)c1ccc(C)c(S(=O)(=O)N2CCCCC2)c1	-4.6	5.9	-1.3	0.1	?	-4.5	-6.9
Cc1ccc(Nc2cc(C)nc3ccc(C)cc23)cc1	12.3	0.0	-0.4	-1.7	3942	-3.5	-10.2
CCc1noc(C)c1C(=O)N1CCN(S(=O)(=O)c2ccc(C(C)=O)cc2)CC1	-1.1	-4.4	2.8	-0.6	5474	4.8	-30.3
Cc1ccc(NC(=O)/C(=C\c2cccs2)NC(=O)c2ccccc2)cc1	-6.4	-4.0	-4.7	-0.3	2117	-7.8	-3.8
O=C(c1cccc(S(=O)(=O)Nc2cccc(C(F)(F)F)c2)c1)N1CCCCC1	3.0	8.3	14.9	-11.9	2102	-3.4	-1.3
Clc1ccc2[nH]cc(-c3nnnn3-c3ccc4ccccc4c3)c2c1	-0.1	6.4	-3.8	-11.3	4375	-17.8	-3.5
CCOC(=O)C1=CNS(=O)(=O)NC1c1ccc(C#N)cc1 (stereo not drawn)	-8.2	4.7	6.7	nt	4071	11.8	-0.7
CCOC(=O)N1CCN(C(=O)C(C)N(c2ccc(Oc3ccccc3)cc2)S(C)(=O)=O)CC1 (stereo not drawn)	6.2	7.5	-1.1	-1.6	2502	7.4	-2.1
Cc1cc(/C=N/n2cnnc2)c(C)n1-c1ccc(OCc2ccc(Cl)cc2)cc1	nt	nt	nt	13.9	2545	nt	15.1
O=C(NCc1ccc(Cl)cc1)C1CCC(=O)N(C2CC2)C1 (stereo not drawn)	4.3	-9.2	-1.0	8.4	6387	3.1	-18.1
[O-][N+]1=c2ccc(Nc3ccccc3)cc2=NC12CCCCC2	23.5	17.6	51.3	23.6	16589*	27.4	-14.4
O=C(NCc1ccco1)c1nn2c(C(F)(F)F)cc(-c3cccs3)nc2c1Br	3.1	-7.0	30.2	0.7	3136	17.4	-13.3
COc1cccc(N2C(=O)c3cccnc3C2O)c1 (stereo not drawn)	0.1	-12.1	1.1	5.8	3638	12.0	-78.9
COc1nc(OC)nc(N2CCC(NC(=O)C(Cc3ccc(C(C)C)cc3)NC(C)=O)CC2)n1 (stereo not drawn)	nt	nt	5.5	-4.7	4458	10.1	-0.9
CC(=O)[C@H]1CC[C@H]2[C@@H]3CC[C@H]4C[C@H](O)CC[C@]4(C)[C@H]3C(=O)C[C@]12C	nt	nt	nt	3.8	6340	nt	-12.5&-15.8
O=C(COC(=O)c1cnccn1)Nc1cccc(F)c1	-7.4	-3.6	3.3	nt	3884	3.0	-6.2
CCc1cc2c(=O)[nH]c(Cc3ccccc3)nc2s1	nt	nt	-0.4	1.3	4768	-3.0	-22.2
CCC(=O)OCCCCCCOc1ccc(C(=O)O)cc1	7.0	-1.5	0.9	4.5	?	3.3	1.7
COc1ccc(NC2=CC(=O)CC(c3ccccc3)C2)cc1 (stereo not drawn)	1.6	-1.8	1.4	2.7	4739	1.4	-13.3
CCOc1ncccc1C(=O)OCC(=O)c1cc(OC)c(OC)c(OC)c1	-3.9	-1.7	0.2	-4.8	4885	-6.1	4.5
CSCCC(NC(=O)c1ccccc1Cl)C(=O)NCC(c1cccs1)N(C)C (stereo not drawn)	5.6	2.0	5.6	nt	6397	2.7	-5.0
CCOC(=O)N1CCN(C(=O)/C(=C/c2ccc(N(C)C)cc2)NC(=O)c2ccccc2)CC1	-3.0	6.2	3.1	nt	7827	5.5	-32.1
COc1ccc(-c2cc(C(F)(F)F)n3nc(C(=O)N4CCCCC4)cc3n2)cc1	3.0	19.7	3.6	4.9	5783	-2.4	7.3
CCN(CC)c1ccc(C=NN(c2ccccc2)c2ccccc2)c(O)c1	9.0	9.7	-4.4	nt	nt	17.3	nt
CC(C)Oc1ccc2c3c(c(=O)oc2c1)CCC3	5.7	9.0	12.5	6.1	5419	3.7	-35.0
O=C(N/N=C/c1ccoc1)c1cc(O)cc(O)c1	nt	nt	nt	3.3	5543	nt	2.0
Oc1ccc(-c2ccccc2)cc1CN1CCCCCC1	-6.1	4.2	-3.4	5.2	3650	15.2	nt
O=C(CN1C(=O)c2cccc3cccc(c23)C1=O)N1CCCCCC1	4.2	4.1	1.7	8.9	14957	6.0	2.3
CC(=O)/C(=C\Nc1ccc(OCc2ccccc2)cc1)c1ccccc1	nt	nt	-5.4	-4.7	2605	19.1	-15.7
Cc1cccc(NC(=O)CSc2nncn2-c2ccccn2)c1	13.4	4.4	3.4	1.2	4754	7.8	-29.7
COC(=O)NN=Cc1sc(N2CCCCC2)nc1-c1cccs1	12.3	3.4	-0.3	nt	nt	7.9	nt
COc1ccc(OC)c(NC(=O)C2C3CCC(C3=C(C)C)C2C(=O)O)c1 (stereo not drawn)	3.6	5.5	4.5	9.4	8012	8.9	-13.9
O=C(Nc1ccccc1)c1ccc(-n2cnnn2)cc1	2.1	-3.1	2.3	3.0	4584	1.0	-22.2
O=C1CCN(CCc2ccccc2)CCN1CCSc1ccccc1	0.8	-2.0	9.8	-18.6	4210	2.6	-41.5
O=C(N/N=C/c1ccc(COc2ccc(Br)cc2)o1)c1ccc2c(c1)OCO2	nt	nt	nt	-7.8	4461	nt	-4.3
NC(=O)C1=CC(c2coc3ccccc3c2=O)CC(OCCCCO)O1 (stereo not drawn)	0.0&13.6	-2.0&9.4	7.0&4.6	nt	nt	1.0&-6.4	nt
Nc1nonc1C(=O)NCCNCc1ccccc1	5.6	-0.4	4.4	5.2	2371	-3.8	-15.8
CCC(=NCCCn1ccnc1)c1c(O)n(-c2ccc(OC)cc2)c(=O)[nH]c1=O	0.8	5.4	2.5	6.8	4286	6.5	11.0
O=C(c1cccc(Cl)c1)C1CCCN(C(=O)c2ccc3c(c2)OCO3)C1 (stereo not drawn)	-0.4	0.1	-0.1	-1.4	6596	3.2	-9.8
CC(C)OC(=O)c1ccc(N2CCN(c3ccccc3F)CC2)nc1	-8.5	1.3	-3.0	-10.4	3968	12.4	-26.0
O=C(N/N=C/c1ccc(O)cc1O)C(=O)N/N=C/c1ccc(O)cc1O	nt	nt	nt	-4.4	3704	nt	-7.2
CCOc1ccc(S(=O)(=O)NCC2CCCO2)cc1NC(=O)c1ccccc1F (stereo not drawn)	9.4	11.6	3.4	-11.3	3837	-1.1	0.0
O=C(CSc1nc2scc(-c3ccccc3)c2c(=O)[nH]1)NC1CCCCC1	2.9	10.0	11.0	7.5	nt	2.8	nt
CC(NC(=O)c1ccccc1F)C12CC3CC(CC(C3)C1)C2 (stereo not drawn)	nt	nt	8.4	-7.4	3454	-2.9	-14.8
CCC(C)N(C(=O)COC(=O)c1ccc(=O)n(Cc2ccccc2)n1)C1CCS(=O)(=O)C1 (stereo not drawn)	-6.2	-8.9	2.7	3.9	4159	2.9	-13.8
O=C1CN(C(=O)CC2c3ccccc3-c3ccccc32)CC(=O)N1	nt	nt	5.2	-10.2	2494	-7.0	-27.0
COc1ccc(-c2nc(=S)c3ccc4ccccc4c3[nH]2)cc1	8.9	1.1	4.3	17.9	4249	2.4	-11.2
CCCCCCCCNC(=O)/C(C#N)=C/c1ccc(SC)cc1	16.5	2.6	5.5	-3.6	2103	12.2	-14.9
CN(C(=O)c1ccc(NC(=O)Cc2ccc([N+](=O)[O-])cc2)cc1)C1CCCC1	9.0	9.6	3.2	nt	3132	11.0	-21.1
CCCc1ccc2oc(C(=O)N3CCN(CCC(N)=O)CC3)c(C)c2c1	4.8	0.0	3.4	-3.4	3554	5.9	-8.7
Cc1ccc(OCCNC(=O)C2CC(=O)N(Cc3ccccc3)C2)cc1 (stereo not drawn)	14.3	6.2	3.1	nt	3046	3.3	-22.9
